High-throughput results deposited in PubChem BioAssay by several laboratories.
Insulin prom inh: TRM-6 insulin promoter activity inhibition; TRM-6 cells (human fetal islet line), insulin promoter-eGFP reporter, imaging; reporter expression induced with tamoxifen; inhibition, % at 2 µM; 0.9% of 130,000 active;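 active means inhibition above the mean plus 3 SD, with well images judged a real hit on visual review, cut at about 60% in these data, passing the limit was not always enough; inconclusive means inhibition over the cutoff but images rejected on review; inactive means inhibition not above the cutoff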
RGS16-Gao HTS: modulates binding between human RGS16 and Galphao; O15492+P09471; bead-based flow cytometry RGS16-Galphao binding, fluorescence; actives lie on both sides; binding response (% of control), % at 10 µM; 0.38% of 220,000 active; AID 1441;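 active means below 25% or above 175%, edge rows of some plates excepted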;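 further: Galphao activated by GDP with aluminum fluoride before binding; 100% = wells without compound and 0% = beads without RGS; some results beyond the cut were filed as inactive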
PKD1 inh: blocks activity of human protein kinase D1; AID 797; 0.056% of 200,000 active; inhibition, %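 (about 10 µM by stock and volumes)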; PKD1 kinase fluorescence polarization assay; Q15139;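 active means inhibition of 50% or more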;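 further: controls were vehicle for no effect and a reference inhibitor for full effect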
Target sequence (Q15139 whole entry, looked up): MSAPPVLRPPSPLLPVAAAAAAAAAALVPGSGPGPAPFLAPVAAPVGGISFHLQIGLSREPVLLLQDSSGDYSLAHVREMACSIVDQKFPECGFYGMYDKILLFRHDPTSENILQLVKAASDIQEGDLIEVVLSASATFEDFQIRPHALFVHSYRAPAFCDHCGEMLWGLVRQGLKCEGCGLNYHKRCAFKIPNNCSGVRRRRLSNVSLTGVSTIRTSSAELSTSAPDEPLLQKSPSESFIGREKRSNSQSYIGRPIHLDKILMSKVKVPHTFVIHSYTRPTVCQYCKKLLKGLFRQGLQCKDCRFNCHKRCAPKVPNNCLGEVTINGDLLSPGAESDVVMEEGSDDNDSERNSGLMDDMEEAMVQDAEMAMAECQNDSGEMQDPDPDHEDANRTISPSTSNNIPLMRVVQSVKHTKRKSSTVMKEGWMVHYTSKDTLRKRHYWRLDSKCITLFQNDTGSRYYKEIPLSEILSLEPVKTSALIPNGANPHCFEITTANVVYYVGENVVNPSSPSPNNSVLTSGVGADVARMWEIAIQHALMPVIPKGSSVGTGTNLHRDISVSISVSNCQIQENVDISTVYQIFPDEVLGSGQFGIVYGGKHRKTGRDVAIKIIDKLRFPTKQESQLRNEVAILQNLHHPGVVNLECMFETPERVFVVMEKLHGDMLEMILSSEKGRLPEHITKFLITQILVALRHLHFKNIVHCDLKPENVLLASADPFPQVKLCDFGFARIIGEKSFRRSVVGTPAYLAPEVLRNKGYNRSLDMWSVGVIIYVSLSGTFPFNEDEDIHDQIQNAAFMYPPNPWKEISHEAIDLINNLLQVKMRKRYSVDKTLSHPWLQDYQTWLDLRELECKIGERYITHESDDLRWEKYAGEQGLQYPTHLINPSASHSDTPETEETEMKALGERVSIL
GALR2 ag: GALR2 (human) receptor agonism; 0.48% of 140,000 active; GALR2-expressing cells, agonist activation read-out; O43603; activation, %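 (tested at 5 µM)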; AID 803;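 active means above mean plus 3 SD of all compounds, about 5% in these data, not always enough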;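 further: 0% = vehicle buffer wells and 100% = reference agonist at full effect; tested in CHO reporter cells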
HSV augment: increases HSV replication in cells; HSV replication augmentation in cells, fold increase; 0.005% of 220,000 active; AID 1956; maximum fold increase;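 active means peak rise of 1.5-fold or more in the series; inconclusive means self-fluorescent or not available for retest; tested in PC3 cells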;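 further: first round at 10 µM; read as green reporter fluorescence; hits show the peak of a series up to 25 µM; 1 = signal of infected wells without compound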
Insulin prom inh cell count: further read-out of Insulin prom inh, marked with its call; normalized cell count, %; measured here: cell count, toxicity; reference of the scale not given here;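 cells exposed to compound for 48 h; stained nuclei by imaging scaled within each plate; lower means fewer cells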
HSV augment primary fold: also measured in HSV augment; calls as there; fold increase; compound at 10 µM; measured here: primary screen fold increase 10 uM; tested in PC3 cells;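 GFP signal in the first replicate; 1 = infected wells without compound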
* = called active by the depositor; i = inactive; ? = inconclusive; / = no result given; [ ] = another dose, or the depositor's remark.

SMILES | Insulin prom inh | Insulin prom inh cell count | RGS16-Gao HTS | PKD1 inh | GALR2 ag | HSV augment | HSV augment primary fold
Cc1ccc(NC(=O)c2ccc(F)cc2)cc1S(=O)(=O)N1CCCCCC1 | / | / | 100 | 7 | / | i | 0.96
O=[N+]([O-])c1ccc(S(=O)(=O)N2CCN(Cc3c[nH]c4ccccc34)CC2)cc1 | / | / | 102 | -1 | -3.3 | i | 1
CC1(C)CC(=O)C=C(Nc2ccccc2O)C1 | 8 | 202 | 101 | -1 | -0.1 | i | 0.91
O=C(NNc1ccc(-c2csnn2)cc1)c1ccccc1C(F)(F)F | / | / | 101 | / | / | i | 0.93
Cc1nc(S(=O)(=O)N2CCOCC2)c(C#N)c(C)c1Cl | 0 | 104 | 100 | -10 | -2.7 | i | 0.9
Cc1nc(NC(=O)COC(=O)CCc2nc3ccccc3s2)c(Cl)cc1Cl | / | / | 98 | -6 | -2.3 | i | 0.92
Cn1ncc(C(=O)Nc2ccc(OC(F)(F)F)cc2)c1-n1cccc1 | / | / | 96 | / | / | i | 0.97
Cc1cc(C(F)(F)F)c(C#N)c(SCC(=O)NC(C)(C)C)n1 | / | / | 80 | -6 | -0.2 | i | 0.97
O=S(=O)(c1ccc(Oc2ccc(S(=O)(=O)N3CCOCC3)cc2)cc1)N1CCOCC1 | / | / | 99 | -10 | -1.4 | i | 1
NC(=O)c1ccsc1NC(=O)CSc1nc2ccccc2c(=O)n1CCCO | / | / | 67 | -8 | -1.4 | i | 0.75
CC(=O)Nc1ccc(CN2CCCCCCC2)cc1 | / | / | 99 | -8 | -1.5 | i | 0.88
COc1cccc(CN2CCNC(=O)C2CC(=O)N2CCCCO2)c1OC (centres undefined) | / | / | 102 | -1 | / | i | 1
Nc1nc2ncc(-c3ccsc3)c(N)n2n1 | -13 | 91 | 99 | -3 | / | i | 0.91
CCOC(=O)C1=C(C)NC(C)=C(C(=O)OCC)C1C(=O)OCC(=O)N(CC)C1CCS(=O)(=O)C1 (centres undefined) | 20 | 92 | 104 | 5 | / | i | 0.94
O=C(CCN1C(=O)C2C3CCC(C3)C2C1=O)Nc1ccccc1C(F)(F)F (centres undefined) | / | / | 144 | -3 | / | i | 1
Clc1ccc(SCc2cc(Cl)nc(-c3ccccc3)n2)cc1 | / | / | / | -7 | -1.9 | i | 1.1
NC(=O)c1ccc(NC(=O)COC(=O)c2cc(S(=O)(=O)N3CCOCC3)ccc2N2CCCCC2)cc1 | / | / | 96 | / | / | i | 1.2
O=C(c1ccc(Cl)c(S(=O)(=O)N2CCCC2)c1)N1CCN(c2ccc(F)cc2)CC1 | / | / | 106 | -6 | / | i | 1
COC(=O)c1c2c(nc3ccccc13)CCC2 | 29 | 133 | 101 | -6 | -2.2 | i | 0.94
O=C(CSc1nc2[nH]ncc2c(=O)[nH]1)N1CCCC1 | / | / | 101 | -3 | -0.6 | i | 0.98
CCCNC(=O)NNC(=O)c1ccc(F)cc1 | -49 | 95 | 94 | -1 | / | i | 0.95
O=C(c1ccccc1Cl)N1N=C(c2ccc(Br)cc2)CC1c1nc2ccccc2[nH]1 (centres undefined) | -22 | 79 | 98 | -2 | -3.4 | i | 0.86
COc1cc(O)c(C(CCN2CCCC2)c2ccc(N(C)C)cc2)c(OC)c1 (centres undefined) | / | / | 100 | / | / | i | 0.68
COC(=O)c1sc(-c2ccc(Cl)cc2)cc1NC(=O)CSCC(=O)O | / | / | 95 | / | / | i | 1
CCOc1ccc(-c2nc(C#N)c(NC3CC3)o2)cc1 | / | / | 104 | -5 | -1.5 | i | 0.87
Next entries follow.
SMILES | Insulin prom inh | Insulin prom inh cell count | RGS16-Gao HTS | PKD1 inh | GALR2 ag | HSV augment | HSV augment primary fold
CC(C)(C)N=C1SCC(C)(/C=N/O)S1 (centres undefined) | 30 | 100 | 99 | -3 | -2.0 | i | 1.1
CSc1sc(C)cc1/C=N/O | 44 | 80 | 103 | -8 | -2.4 | i | 0.94
O=C(NNc1ccccc1Br)C(O)(c1cccc(C(F)(F)F)c1)c1cccc(C(F)(F)F)c1 | -7 | 104 | 100 | -2 | -2.6 | i | 0.81
CC(C)(C)NC(=O)CN(Cc1cccs1)C(=O)c1csnn1 | 25 | 92 | 99 | -3 | -1.3 | i | 0.96
Cc1cc(=O)[nH]c(NCCO)n1 | 39 | 68 | 89 | 3 | / | i | 1.1
CCCNc1ccc(C(=O)OCC)cc1[N+](=O)[O-] | 7 | 54 | 37 | -6 | / | i | 0.73
COc1ccccc1C(=O)Nc1nnc(-c2ccco2)s1 | -45 | 61 | 101 | 4 | -1.2 | i | 0.78
O=C(NC1CCN(Cc2ccccc2)CC1)C12CC3CC(CC(C3)C1)C2 | 3 | 154 | / | 2 | -3.1 | i | 0.92
COc1ccc(C(=O)c2ccc(OC)c(Br)c2)cc1Br | / | / | 254*[activator] | 4 | -1.5 | i | 1.1
c1ccc2c(N3CCCCC3)nc(N3CCCC3)nc2c1 | 8 | 58 | 113 | 0 | -0.3 | i | 0.47
Cc1ccc(Cn2c(NCCc3ccccc3)nc3c2c(=O)n(C)c(=O)n3C)cc1 | -2 | 83 | 111 | -8 | -0.1 | i | 0.95
O=C(CC(=O)c1cc(Cl)ccc1O)c1ccccc1 | -40 | 52 | 101 | -1 | 0.5 | i | 1.1
CCN1CC(CN(C)Cc2cn(-c3ccc(C)cc3)nc2-c2cccc(C)c2)CC1=O (centres undefined) | 19 | 102 | 100 | 3 | / | i | 0.96
CC(C)C1CC(CCNCc2ccc(N(C)C)cc2)(c2ccccc2)CCO1 (centres undefined) | / | / | 102 | 4 | 2.9 | i | 0.82
CCC(=O)N(CC(=O)Nc1sc(C)c(C)c1C(N)=O)C1CCCCC1 | 3 | 76 | 100 | -2 | 0.1 | i | 0.98
N#Cc1c(SC(C(=O)O)c2ccccc2)nc2c(c1-c1cccs1)CCCC2 (centres undefined) | / | / | 96 | / | / | i | 1.2
CC(Nc1cc(=O)n(C)c(=O)[nH]1)c1ccccc1 (centres undefined) | 50 | 111 | 97 | 10 | 0.0 | i | 1.1
Cc1ccc(C)c(NS(=O)(=O)c2c(C)ccc3nsnc23)c1 | -36 | 138 | 99 | -3 | -1.4 | i | 0.99
CCOc1ccc(NC(=O)/C(C#N)=C/c2ccc(N3CCCC3)c(C)c2)cc1 | / | / | 102 | -1 | -0.1 | ? | /
Cc1ccc(OCC(=O)NCCC2=CCCCC2)cc1 | i | 32 | 124 | 6 | -1.2 | i | 0.98
COc1cccc(N(CC(=O)NC(C)(C)C)C(=O)C2CSC(=O)C2)c1 (centres undefined) | -21 | 72 | 100 | 11 | -1.8 | i | 1.1
Cc1cccc(Nc2ncnc3c2cnn3C)c1 | / | / | 102 | -4 | / | i | 1
CC(C)N1CC2=C(C1=O)C(c1ccc(O)cc1)NC(=O)N2C (centres undefined) | / | / | 98 | -8 | / | i | 0.98
Cc1ccc(S(=O)(=O)c2c(C)cc(C)nc2N2CCCC2)cc1 | -215 | 72 | 102 | 8 | / | i | 1.1
CC1(C)CC(=O)/C(=C(/O)Cc2ccccc2)C(=NCCc2ccccc2)C1 | 16 | 109 | 97 | -1 | -1.9 | i | 0.99
(more compounds)
SMILES | Insulin prom inh | Insulin prom inh cell count | RGS16-Gao HTS | PKD1 inh | GALR2 ag | HSV augment | HSV augment primary fold
Cc1cc(C(F)(F)F)cc(NNC(=O)NC(=O)c2c(F)cccc2Cl)n1 | / | / | 97 | / | / | i | 0.97
CCCC(c1nnnn1Cc1ccc2c(c1)OCO2)N1CCC(C(N)=O)CC1 (centres undefined) | / | / | 101 | -4 | / | i | 0.97
CC1=C(C(=O)OCc2ccccc2)C(c2ccco2)C2=C(CC(C)(C)CC2=O)N1 (centres undefined) | / | / | 100 | -15 | -0.8 | i | 1
COc1ccc(C)cc1NC(=O)CN1CCN(c2ccc(F)cc2)CC1 | 57 | 109 | 102 | -10 | 1.5 | i | 0.96
COC(=O)Cc1[nH]nc2c1C(c1cccc(OC)c1OC)C(C#N)=C(N)O2 (centres undefined) | -48 | 142 | 99 | -4 | -1.9 | i | 0.81
CCN(CCNC(=O)c1cccc(N2CCCC2=O)c1)c1ccccc1 | -66 | 97 | 98 | -3 | -1.1 | i | 0.99
COc1ccccc1C(=O)NC(=S)Nc1ccc(N2CCCC2)cc1 | -121 | 83 | 106 | 2 | -2.5 | i | 0.82
Cc1ccccc1NC(=O)C1c2cccc[n+]2CC(=O)N1c1c(C)cccc1C (centres undefined) | -11 | 102 | 105 | -3 | -1.1 | i | 1.1
COC(=O)CSc1nc(NC(C)(C)C)nc(N(C)C)n1 | -55 | 60 | 111 | -2 | / | i | 0.96
CCCCn1c2c(c(=O)n(C)c1=O)C(CC(=O)OCC(=O)Nc1cccc(C(F)(F)F)c1)C(=O)N2 (centres undefined) | 17 | 109 | 82 | 1 | -1.0 | i | 0.92
COc1ccc(/C=N/NC(=O)c2cccnc2)cc1CN1CCc2cc(OC)c(OC)cc2C1C (centres undefined) | / | / | 99 | -8 | / | i | 0.91
O=C(Oc1cccc2cccnc12)c1cccc(N2C(=O)C3C4CCC(C4)C3C2=O)c1 (centres undefined) | / | / | 73 | -3 | -0.9 | i | 0.84
CC1(C)COC2(OC1)C(=O)Nc1ccccc12 | / | / | 103 | -1 | / | i | 1
COc1ccc(N(CC(=O)N2CCN(C)CC2)S(=O)(=O)c2ccccc2)cc1OC | 40 | 75 | 99 | 0 | -2.6 | i | 1.2
C=CCNC(=S)N1CCN(CCN=Cc2c(C)[nH]n(-c3ccc([N+](=O)[O-])cc3)c2=O)CC1 | -25 | 66 | 103 | -2 | / | i | 1
Cc1cccc(N(C(=O)c2ccc(CN3CCOCC3)o2)C(C(=O)NC2CCCCC2)c2ccc(F)cc2)c1 (centres undefined) | 88* | 99* | 108 | -2 | -1.9 | i | 0.98
COc1ccc(C)cc1NC(=O)C(Sc1nnc(-c2cccs2)o1)c1ccccc1 (centres undefined) | 10 | 105 | 65 | -3 | -1.3 | i | 0.93
Nc1ccc2nc(CCCO)[nH]c2c1 | / | / | 107 | / | / | i | 0.87
CCOC(=O)C(C)n1cnc2c(nnn2-c2cccc(Cl)c2)c1=O (centres undefined) | / | / | 101 | -3 | -2.1 | i | 0.61
Nc1nonc1-c1nc2ccccc2n1CC(=O)N/N=C/c1ccc(-c2cccc(C(=O)O)c2)o1 | -40 | 179 | 101 | 1 | / | i | 1
Cc1cc(-c2nnc(CCC(=O)N(CC3CC3)CC3CCCO3)o2)no1 (centres undefined) | / | / | 101 | 2 | / | i | 0.96
O=C(Nc1cccc2c1CCCC2)C1CCN(c2nnnn2-c2ccccc2)CC1 | -23 | 123 | 107 | -4 | 1.8 | i | 0.86
CN(c1c[nH]c(=O)[nH]c1=O)C1CCCCC1 | / | / | 101 | -13 | / | i | 1
Cc1c(N=Nc2ccc(O)cc2)c(=O)n(-c2ccccc2)n1C | 17 | 84 | 98 | 3 | / | i | 1.1
CC(C)Cn1c(N)c(C(=O)COC(=O)CCc2nc3ccccc3s2)c(=O)n(C)c1=O | / | / | 100 | -8 | / | i | 1.1
CNc1nc(-c2ccc3c(c2)CCN3C(=O)c2ccccc2F)cs1 | / | / | 98 | -6 | / | i | 1
COc1ccc(C(C)=O)cc1Cn1nc(C)c([N+](=O)[O-])c1C | / | / | 103 | 9 | / | i | 0.89
COc1ccccc1N(C)S(=O)(=O)c1ccc(C(=O)NC(C)(C)C)cc1 | 19 | 89 | 105 | -2 | -1.9 | / | /
